VDR inh: Inhibitors of the vitamin D receptor (VDR): qHTS; Vitamin D3 receptor (Homo sapiens), P11473; VDR-SRC2-3 peptide fluorescence polarization, 2 h; Potency, µM, for the others: max response, negative = inhibition, hits mostly inhibitors; hit rate 0.93% among 400,000; AID 504847, 2011; active = well fitted inhibition curve with a large enough effect; inconclusive = small, poorly fitted or top-dose-only effect, or another doubt; inactive = no such curve, though single readings can be large or run the other way; note: series mostly up to about 120 µM
Target sequence (P11473 whole entry, looked up): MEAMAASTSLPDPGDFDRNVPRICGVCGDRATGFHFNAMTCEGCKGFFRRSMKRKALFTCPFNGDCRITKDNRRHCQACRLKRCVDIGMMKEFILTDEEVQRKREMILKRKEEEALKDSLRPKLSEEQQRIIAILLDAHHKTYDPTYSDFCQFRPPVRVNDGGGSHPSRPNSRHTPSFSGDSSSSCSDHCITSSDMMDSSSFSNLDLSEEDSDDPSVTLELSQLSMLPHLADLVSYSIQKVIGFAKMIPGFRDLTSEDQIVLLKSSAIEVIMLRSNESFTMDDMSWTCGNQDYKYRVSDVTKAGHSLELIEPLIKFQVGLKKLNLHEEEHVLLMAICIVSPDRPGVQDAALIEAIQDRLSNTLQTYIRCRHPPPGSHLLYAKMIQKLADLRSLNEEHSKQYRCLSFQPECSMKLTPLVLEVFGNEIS
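Compounds are added to VDR with labelled SRC2-3 coactivator peptide and held 2 h at room temperature. Inhibition of the VDR–peptide interaction is then read as a change in fluorescence polarization.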
* hit, by the source's call; ? = inconclusive; & = joins results of further samples. % is set by controls: 0 for no effect and ±100 for the full control effect; potency is the fitted concentration of half-maximal effect. Only part of the results is shown (hit frequency here may not be typical).

SMILES	VDR inh
CN1C(=O)C(C)(C)c2cc(S(=O)(=O)NCC(=O)NCc3ccccc3)ccc21	9.1%
Cc1[nH]nc2c1/C(=N\O)CCC2	-8.8%
COc1cc(C(=O)N2CCN(S(=O)(=O)c3ccc(C)cc3)CC2)ccc1OCc1c(C)noc1C	19.6%
COC(=O)[C@H](CCSC)NC(=O)NCc1ccc(S(N)(=O)=O)cc1	-0.4%
CCCCOc1ccc(C2=CSC3=NCCN23)cc1[N+](=O)[O-]	?
CCOc1ccc(C(NC(=O)c2ccco2)c2ccc(OC)c(OC)c2)cc1 (stereo not given)	7.8%
N#CCSc1nnc(-c2ccc(S(=O)(=O)N3CCOCC3)cc2)n1CC1CCCO1 (stereo not given)	-6.5%
NC(=O)c1cccnc1Oc1ccccc1	16.1%
O=C(c1ccccc1)c1ccc(C(=O)N2CCN(c3ccc(O)cc3)CC2)cc1	-2.2%
O=C(CCS(=O)(=O)c1cccc2nonc12)Nc1ccc(F)cc1F	2.8%
CC(NS(=O)(=O)c1ccccc1)C(c1cccs1)N1CCN(c2ccccc2)CC1 (stereo not given)	-5.2%
CC(=O)N1CCCc2cc(S(=O)(=O)Nc3ccc(C)cc3C)ccc21	6.3%
Cn1nccc1NC(=O)Nc1cccc(Cl)c1Cl	0.9%
O=C1NN=C(CSc2n[nH]c(=S)s2)CS1	-20.8%
CNc1nc2c(c(=O)n(C)c(=O)n2C)n1CC(O)COc1ccc(OC)cc1 (stereo not given)	-14.4%
CCCc1ccc(S(=O)(=O)N2CCC(c3nnc(-c4cccc(C)c4)o3)CC2)cc1	?
CCOC(=O)CN1NC2(CCCCC2)NC1=S	-18.2%
COCCn1c(SCC(=O)N2CC(=O)Nc3ccccc32)nc2ccccc2c1=O	-0.8%
COc1cccc2c1OC[C@@H](CO)[C@H]2N(C)C(=O)Nc1ccc(Cl)cc1Cl	-13.8%
COc1ccc(C(=O)N2CCCc3ccccc32)cc1Br	-5.4%
Cc1ccc(NC(=O)CSc2nc3c(c(=O)[nH]2)CCCC3)cc1C	-11.8%
O=C(Nc1nc2ccc(Oc3ccccc3)cc2s1)c1cc([N+](=O)[O-])ccc1N1CCOCC1	-14.1%
C[C@H](NC(=O)c1ccc(C(C)(C)C)cc1)C(=O)N1CCC2(CC1)NCCc1[nH]cnc12	-14.1%
N=c1oc2ccc(Cl)cc2cc1C(=O)Nc1ccc(F)cc1	-7.4%
COC(=O)c1cccc(Cn2nnc3sc4c(c3c2=O)CCC(C(C)(C)C)C4)c1 (stereo not given)	9.5%
COc1ccccc1N(CC(=O)NCc1ccccc1)S(C)(=O)=O	1.3%
CCOC(=O)C1CCN(Cc2ccc(OCc3ccccc3)c(OC)c2)CC1	11.8%
COc1ccc(CCNC(=O)c2cc(-c3ccccc3)nc3ccccc23)cc1OC	3.8%
O=C1CN(C(=O)c2ccccc2)c2ccccc2N1	-6.3%
CC(CCc1ccccc1)NC(=O)C1CCN(S(=O)(=O)N2CCCCC2)CC1 (stereo not given)	5.5%
OC(CNCCc1ccc(C(F)(F)F)cc1)COc1ccc2ccccc2c1 (stereo not given)	-14.3%
COc1ccccc1CN1CC(C(=O)NCc2nccn2C)CCC1=O (stereo not given)	-23.7%
Cc1cc(C)c2nc(N3C(=O)C(O)=C(C(=O)c4ccco4)C3c3cccc(O)c3)sc2c1 (stereo not given)	79.4µM*
CCN(CC)S(=O)(=O)c1ccc2c(c1)N(CC(=O)N1CCN(c3ccc(Cl)cc3)CC1)C(=O)CO2	2.9%
Cc1ccc(C(=O)N2CCc3cc(CNC(=O)COc4ccccc4)ccc32)cc1	7.1%
C=CCn1c(SCC(N)=O)nnc1-c1cnccn1	11.9%

Gathered by group: the compounds so far with a thiophene ring, fused or not
SMILES	VDR inh
CC(NS(=O)(=O)c1ccccc1)C(c1cccs1)N1CCN(c2ccccc2)CC1 (stereo not given)	-5.2%
COC(=O)c1cccc(Cn2nnc3sc4c(c3c2=O)CCC(C(C)(C)C)C4)c1 (stereo not given)	9.5%

Continuation:
SMILES	VDR inh
O=[N+]([O-])c1ccc(N2CCC(O)CC2)nc1	-23.6%
COc1cc(CC(=O)OCC(=O)NC2CC2)cc(OC)c1OC	-10.2%
Cc1nn2c(C)c(C(=O)Nc3ccccc3)cnc2c1C#N	-3.7%
Cn1c(=O)c2c(nc3n(-c4ccc(O)cc4)c(-c4ccc(Br)cc4)cn23)n(C)c1=O	-9.5%
COCCOC(=O)c1sc(=S)n(CCOC)c1N	-9.9%
CCOC(=O)N1CCC(Nc2ncnc3c2cnn3-c2ccc(Cl)cc2)CC1	?
CN(C)S(=O)(=O)c1ccc(NC=C(C#N)C#N)cc1	-2.4%
O=C(NCCc1ccccc1)c1nc(CS(=O)(=O)c2ccc(Cl)cc2)no1	12.9%
COc1cc(/C=C/C(=O)OCC(=O)N(C)CC(=O)Nc2ccc(F)cc2)ccc1OC(F)F	13.5%
Cc1cccc(NC(=O)C2CCCN2C(=O)OCC(C)C)c1 (stereo not given)	-12.2%
O=C1Cc2cc(NS(=O)(=O)c3ccc(F)cc3)cc3c2N1CCC3	-8.6%
O=C(O)CN(CCc1ccccc1)S(=O)(=O)c1ccccc1	-6.0%

Gathered by group, the entries above with two or more sulfur atoms.
SMILES	VDR inh
COC(=O)[C@H](CCSC)NC(=O)NCc1ccc(S(N)(=O)=O)cc1	-0.4%
N#CCSc1nnc(-c2ccc(S(=O)(=O)N3CCOCC3)cc2)n1CC1CCCO1 (stereo not given)	-6.5%
CC(NS(=O)(=O)c1ccccc1)C(c1cccs1)N1CCN(c2ccccc2)CC1 (stereo not given)	-5.2%
O=C1NN=C(CSc2n[nH]c(=S)s2)CS1	-20.8%
COCCOC(=O)c1sc(=S)n(CCOC)c1N	-9.9%

Carrying on:
SMILES	VDR inh
Cc1c(C(=O)N2CCCCCC2)oc2ccccc12	-5.1%
Cc1ccc([N+](=O)[O-])cc1NC(=O)CSc1nncc2ccccc12	?
CCN(c1ccccc1)S(=O)(=O)c1ccc(C(=O)NCC(=O)Nc2ccc(F)c(F)c2F)cc1	-0.2%
Cc1ccccc1-c1nnn(Cc2cccc(S(=O)(=O)N3CCOCC3)c2)n1	-20.6%
c1ccc2sc(NC3=NCN(CC4CCCO4)CN3)nc2c1 (stereo not given)	2.3%
Cc1c(C(=O)C(=O)N2CCN(C)CC2)c2ccccc2n1C	-17.8%
Cc1ccc(C(=O)CN(CCC(=O)O)S(=O)(=O)c2ccc([N+](=O)[O-])cc2)cc1	-15.4%
O=C1CCCC/C=C\C[C@H](CC(=O)N(CCO)Cc2ccccc2)C(=O)NC[C@H](c2ccccc2)O1	-17.4%
COc1ccc(Oc2ncc3nc(-c4ccc(F)cc4)c(=O)n(C4CC4)c3n2)cc1	-8.7%
O=C(COc1ccc(F)cc1)Nc1nnc(C2CCCCC2)s1	-9.0%
Cc1ccc(C2CC(c3cccs3)=NN2C(=O)c2ccco2)o1 (stereo not given)	0.3%
COc1ccc(OCC(=O)OCC(=O)N2C(C)CCCC2C)cc1 (stereo not given)	6.8%
Cc1c(C(=O)Nc2ccc(F)cc2F)sc2nc3n(c(=O)c12)N=C(c1ccccc1)CS3	8.1%
CC(=O)c1cccc(NC(=O)CN2C(=O)CC(c3ccc(C)cc3C)=Nc3ccccc32)c1	10.6%
Nc1c(NCc2ccccc2)c2ccccc2oc1=O	-3.6%
O=C(Nc1ccc(F)c(Cl)c1)c1nsc(Cl)c1Cl	5.8%
Cc1cccc(NS(=O)(=O)c2ccc(C)c(C(=O)NCc3cccnc3)c2)c1	-16.3%
Cc1ccc([N+](=O)[O-])cc1S(=O)(=O)N(C)C	12.2%&2.2%
CCSc1ccc2nnc(-c3ccc(F)cc3)n2n1	-5.4%
COc1cc(OC)cc(C(=O)N[C@H](C(=O)Nc2nc3c(s2)CCCC3)C(C)C)c1	5.4%
CC(C)(C)OC(=O)C[C@@H]1C/C=C\C[C@@H](CC(=O)NCCO)C(=O)N[C@H](Cc2c[nH]c3ccccc23)COC1=O	20.8%
CCOC(=O)COc1cccc2c(=O)n(CC(=O)N3CCCCC3)ccc12	28.2%
O=C(CCNS(=O)(=O)c1ccc2c(c1)CCCC(=O)N2)NCc1ccc(Cl)cc1	9.5%
Cc1cccc(CSc2ccc(-c3cccs3)nn2)c1	9.5%&-11.1%

Three entries from above, with each value named.
Molecule: CCOC(=O)COc1cccc2c(=O)n(CC(=O)N3CCCCC3)ccc12
  VDR inh: 28.2%

Molecule: O=C(CCNS(=O)(=O)c1ccc2c(c1)CCCC(=O)N2)NCc1ccc(Cl)cc1
  VDR inh: 9.5%

Molecule: Cc1cccc(CSc2ccc(-c3cccs3)nn2)c1
  VDR inh: 9.5%&-11.1%

Continued:
SMILES	VDR inh
Cc1[nH]n(C(N)=S)c(=O)c1N=Nc1ccc(Cl)cc1Cl	1.0%
COC(=O)c1ccccc1NC(=O)Cn1c(=O)cc(C)c2c(C)nn(C)c21	10.3%
OC(c1ccccc1)(c1ccccc1)C1CCN(C(=S)Nc2ccc(F)cc2)CC1	1.9%
Cc1ccc(CNC(=O)CCSCc2ccccc2F)cc1	-6.9%&8.3%
COc1ccccc1CN1CC(C(=O)NCc2cc(C)on2)CCC1=O (stereo not given)	-6.8%
O=C(Nc1ccccc1Cl)C1CCN(Cc2cnn(-c3ccccc3)c2-n2cccc2)CC1	-0.8%
O=C(NC1CC(=O)N(c2ccccc2)C1)C(c1ccccc1)c1ccccc1 (stereo not given)	16.3%
CCOC(=O)N1CCC(NC(=O)CC2C(=O)NCCN2Cc2cccc(F)c2F)CC1 (stereo not given)	8.5%
O=C(NCc1ccncc1)C(=O)N/N=C/c1ccccc1OCc1ccccc1	?
Cc1ccnc(SCC(N)=O)n1	-12.4%
O=C(CCNS(=O)(=O)c1ccc(Br)s1)Nc1ccc(Br)cc1	-13.6%
Cc1cccc(OCCCC(=O)NNC(=O)CCN2CCN(c3ccccc3)CC2)c1	-10.5%
N#Cc1ccc(CNC(=O)N2CCOCC2)cc1	6.6%
CCOC(=O)C1CCN(Cc2cccc(Oc3ccc(Cl)cc3)c2)CC1	-3.4%
O=C(NCCc1cccs1)C(c1ccccc1)c1ccccc1	-11.0%
Cc1ccc(S(=O)(=O)N(CC(=O)NCc2ccncc2)C2CCCCC2)cc1	?
O=C1NC(c2ccccc2)Cc2ccncc21 (stereo not given)	-7.0%
O=C(NCC(c1cccnc1)N1CCN(c2ccccc2)CC1)OCc1ccccc1 (stereo not given)	-1.2%
COc1ccc(CC(=O)NCc2ccccn2)cc1OC	14.8%
Cc1ccc(COc2ccc(C(=O)NN)cc2)cc1	-24.1%
NC(N)=NN=C(c1ccc(F)cc1)c1ccc(C(F)(F)F)cc1	-14.9%
Cc1cc(N/C(=N\S(=O)(=O)c2ccc(Cl)cc2)c2ccc(F)cc2)no1	-11.2%
Cc1cc(C(=O)N2CCN(S(C)(=O)=O)CC2)sc1-c1ccccc1	15.6%
O=C(Nc1cc(-c2nc3ncccc3o2)ccc1Cl)c1ccc([N+](=O)[O-])o1	17.7%
Cc1ccc(C)c(Oc2cc(F)nc(N)n2)c1	-0.4%
O=C(Nc1nc(-c2cccs2)c(-c2ccccc2)s1)c1ccco1	9.4%
COc1cc(-c2ccc(NC(=O)c3ccc(C)cc3)c(OC)c2)ccc1NC(=O)c1ccc(C)cc1	1.0%
Cn1c(=O)cc(N2CCOCC2)[nH]c1=O	-12.6%
COc1ccc(N2C(=O)C3CCCN3C2c2ccccc2Cl)cc1 (stereo not given)	-15.3%
CCc1ccc(C2N=C(N)Nc3nc4ccccc4n32)cc1 (stereo not given)	-2.6%
O=C(COC(=O)c1ccc(F)cc1F)NC(=O)Nc1ccc2c(c1)OCCO2	15.0%
CCOC(=O)C1=C(N)Oc2ccc3ccccc3c2C1c1ccc(O)c(OC)c1 (stereo not given)	-18.7%
Cc1ccc(CNC(=O)CCc2nnc(Cc3ccc(-c4ccccc4)cc3)o2)o1	4.9%
COc1ccc(-c2nc(SCC(=O)Nc3nccs3)c(-c3ccc(Cl)cc3)[nH]2)cc1	-11.3%
CCOC(=O)C1CCN(C(=O)COc2ccc(S(=O)(=O)NC(C)C)cc2)CC1	11.3%
Cc1ccc(-n2c(SCC(=O)OC(C)C)nnc2-c2ccco2)cc1	20.0%
O=C(CSCc1ccc(Cl)cc1)Nc1ccc(-c2nnc(-c3ccccc3)o2)cc1	-23.5%
C=CCC(CC=C)(C(=O)O)c1ccccc1	13.4%
CC1CCN(S(=O)(=O)CCNC(=O)c2ccc3c(c2)OCO3)CC1	5.3%
Cc1nc(=O)c(-c2ccccc2)c(C)n1-c1ccccc1	-20.1%
CCCNC(=O)C1CCN(S(=O)(=O)c2ccc3[nH]c(=O)ccc3c2)CC1	-10.5%
O=C(N/N=C/c1ccc(N2CCOCC2)c([N+](=O)[O-])c1)c1ccc(F)cc1	10.9%
CCOC(=O)c1c(N2C(=O)C3CC(C)=C(C)CC3C2=O)sc(C)c1C (stereo not given)	0.1%
CN(C(=S)NC(=O)c1ccccc1)C1CCCCC1	2.8%
O=C1C2C3C=CC(C4CC34)C2C(=O)N1CCCCN1CCN(c2ccc(F)cc2)CC1 (stereo not given)	7.9%
Cc1cccc(NC(=O)Cc2noc3ccccc23)c1	?
COc1ccc(C(Nc2cc(C)ccn2)c2ccc3ccc(C)nc3c2O)cc1 (stereo not given)	?
NC(=O)OC[C@@H]1[C@H](NC(=O)/C(=N/OCC(=O)O)c2csc(N)n2)C(=O)N1S(=O)(=O)O	-7.4%
O=C(NN1CCOCC1)c1ccc(Cl)cc1	-7.4%
Cc1ccccc1OCC(=O)NCCCNC(=O)c1ccco1	-20.1%
O=C(CCC(=O)Nc1ccc(F)cc1)N/N=C/c1c[nH]c2ccccc12	-5.0%
C1=C(CN2CCOCC2)COc2c1cccc2OC[C@@H]1CNCCO1	-0.2%
